Screening results deposited in PubChem BioAssay by National Center for Advancing Translational Sciences (NCATS).
A647 fluor: compound fluoresces in the A647 spectral region | AID 592 | 59,000 tested, under 10 active | max dye-equivalent concentration, M | Compound fluorescence, A647 channel (570/671 nm), Tris buffer; active means above 1 µM dye equivalent; inconclusive means 0.1 to 1 µM; inactive means 0.1 µM or less;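 also: values scaled relative to a standard on each plate; highest value over a series up to 38 µM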
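Buffer was dispensed, compounds and Alexa 647 standards were pin-transferred, and plates sat 15 min at room temperature. Intensity at 570/671 nm was then converted to dye-equivalent concentration using the plate's A647 standard curve.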
AID923: qHTS Assay for Allosteric/Competitive Inhibitors of Caspase-1: Spectroscopic Profiling in AFC Spectral Region; Potency, µM (highest dose often 57.5 µM), for inactives: top-dose fluorescence increase, most hits filed as activators; 75,000 compounds, 1.1% hits; compound fluorescence, AFC spectral region (405/520 nm); almost no hit is shown here; active = well fitted activation curve with a large enough effect; inconclusive = small, poorly fitted or top-dose-only effect;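 also: potency is read from the fitted curve at half-maximal effect; 0% is about no effect; scaled to a free AFC standard on each plate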
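Baseline compound fluorescence (AFC region, 405 nm ex/520 nm em) taken from the intercept of kinetic reads with 50 nM caspase-1 and 5 uM Ac-WEHD-AFC; normalized to an on-plate AFC standard curve; compounds titrated up to 57 uM.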
Resorufin autofl: resorufin region autofluorescence. Compound fluorescence, resorufin region 547/598 nm, buffer; active compounds read high. AID 588. 59,000 compounds, 0.04% hits. max dye-equivalent concentration, M; active = above 10 nM dye equivalent; inconclusive = 1 to 10 nM; inactive = 1 nM or less; a few of its hits are not listed in these tables; also: highest value over a series up to 38 µM
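Intrinsic fluorescence profiled in the resorufin window (ex 547 nm, em 598 nm) after 15 min at room temperature in pH 8.0 Tris buffer (100 mM); responses normalized against a six-point resorufin standard series as dye-equivalent concentration.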
TSHR agonist: activates the human thyroid stimulating hormone receptor; P16473; HEK293-CNG-TSHR cells (CNG channel as cAMP sensor), membrane potential dye, cAMP; Potency, µM (series often up to 57.1 µM), inactives show at the top dose activation, usual class: activators; 73,000 compounds, 0.48% hits; active = well fitted activation curve of enough size with the parental cells flat; inconclusive = any curve in the parental cells; inactive = parental cells flat and receptor cells flat or falling; also: potency is read from the fitted curve at half-maximal effect; % of control where 0% means no effect; weak receptor curves with flat parental cells got no call and are not listed
Target sequence (P16473 whole entry, looked up): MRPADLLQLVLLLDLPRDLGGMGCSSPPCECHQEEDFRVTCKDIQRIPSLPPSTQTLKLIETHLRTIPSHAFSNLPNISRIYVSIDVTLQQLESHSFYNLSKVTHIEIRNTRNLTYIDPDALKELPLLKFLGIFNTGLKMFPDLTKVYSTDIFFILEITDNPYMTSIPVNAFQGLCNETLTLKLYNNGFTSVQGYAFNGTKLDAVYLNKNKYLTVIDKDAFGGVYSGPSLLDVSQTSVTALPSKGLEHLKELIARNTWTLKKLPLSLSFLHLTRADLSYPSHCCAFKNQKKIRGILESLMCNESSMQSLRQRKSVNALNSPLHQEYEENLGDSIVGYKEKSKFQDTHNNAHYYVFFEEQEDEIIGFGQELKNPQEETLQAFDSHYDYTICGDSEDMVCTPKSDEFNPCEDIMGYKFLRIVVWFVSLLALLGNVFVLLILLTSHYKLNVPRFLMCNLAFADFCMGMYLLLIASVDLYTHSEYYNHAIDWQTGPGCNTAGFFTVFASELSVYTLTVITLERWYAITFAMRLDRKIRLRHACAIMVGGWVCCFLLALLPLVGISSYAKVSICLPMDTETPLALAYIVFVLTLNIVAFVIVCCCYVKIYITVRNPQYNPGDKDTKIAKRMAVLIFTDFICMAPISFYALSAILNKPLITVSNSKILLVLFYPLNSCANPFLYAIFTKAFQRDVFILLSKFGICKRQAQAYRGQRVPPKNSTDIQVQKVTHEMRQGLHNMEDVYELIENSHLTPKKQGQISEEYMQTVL
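HEK 293 cells stably expressing TSHR and a cAMP-gated CNG channel; parental CNG-only cells as counterscreen. Cells preloaded 60 min with membrane potential dye plus 100 uM RO 20-1724, then compound 30 min; fluorescence read at 590 nm.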
A488 autofl: compound fluoresces in the A488 spectral region; compound autofluorescence, A488 spectral region, dye equivalency; active compounds read high; max dye equivalency, M; 59,000 compounds, 0.1% hits; AID 591; active = above 10 nM dye equivalent; inconclusive = 1 to 10 nM; inactive = 1 nM or less; about half of its hits are not listed in these tables;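 also: highest value over a series up to 38 µM; compound alone in buffer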
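Autofluorescence read at ex 480/em 540 nm after 15 min RT in 100 mM Tris pH 8.0; compound signal normalized to A488 standard series on each plate, reported as dye-equivalent concentration at each test concentration.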
Starred values were filed as active, the others as inactive; i = inactive; ? = inconclusive; . = no result given; [ ] = dose if it differs, or a comment. A portion of the library. The share of hits here may be higher or lower than overall.

SMILES | A647 fluor | AID923 | Resorufin autofl | TSHR agonist | A488 autofl
CCN1CCN(CC(O)COc2cccc(OC)c2)CC1 (centres undefined) | 1.27e-08 | -2.7% | i | -1.6%[11.4 µM] | i
O=C(NCc1cn2ccsc2n1)c1cccs1 | . | 2.1% | . | -0.9% | .
COC(=O)c1[nH]c2cc(OC)ccc2c1NC(=O)CN1CCC(C(N)=O)(N2CCCCC2)CC1 | 4.19e-08 | 0.3% | i | -3.6% | i
Cc1noc(C)c1-c1cc(N(C)Cc2ccco2)ncn1 | 2.36e-08 | 2.2% | i | 2.3% | i
NC(=O)CSc1nnc(CNc2ccc(F)cc2)n1CC1CCCO1 (centres undefined) | 1.7e-09 | 2.5% | i | 1.4% | i
COc1ccc(NC(=O)Cc2nn(C)c(=O)c3ccccc23)c2ncccc12 | 4.19e-08 | -0.4% | i | 11.2% | i
O=C(C1CC(c2ccc(F)cc2)=NO1)N1CCN(Cc2ccccc2)CC1 (centres undefined) | . | -0.2% | . | -7.2% | .
COC(=O)CSc1nnc(-c2sc3cc(OC)ccc3c2Cl)n1C | 2.1e-09 | 2.4% | i | -1.8% | i
CCCCNC(=O)CCn1c(=O)c2ccccc2n(CC(=O)Nc2ccccc2OCC)c1=O | 9.8e-09 | -1.4% | i | 12.2%[11.4 µM] | i
Cc1ccccc1N1CCN(S(=O)(=O)c2ccc3oc(=O)ccc3c2)CC1 | 1.13e-08 | 1.5% | i | 15.5% | i
COc1ccc(Nc2nc(N)nc(C(F)(F)F)n2)c(OC)c1 | 1.48e-08 | -1.2% | i | 10.2% | i
COc1ccc(C(=O)OCCN=C2NS(=O)(=O)c3ccccc32)cc1OC | 1.14e-08 | 1.9% | i | 11.9% | i
CCCc1nc2ccccc2c(=O)n1/N=C/c1ccc(O)cc1O | 1.91e-08 | -1.0% | i | 5.6% | i
COCCCNC(=O)CCS(=O)(=O)Cc1ccc(C)cc1 | 1.68e-08 | -1.2% | i | 0.6% | i
O=C(c1ccccc1F)N1CCN(c2cccc(C(F)(F)F)c2)CC1 | 4.72e-08 | 0.1% | i | -6.1% | i
C#CCN1C(=O)C(O)(CC(=O)c2cccc(OC)c2)c2ccccc21 (centres undefined) | 1.23e-08 | -1.2% | i | -0.7% | i
CCC1Oc2ccc(C)cc2N(CC(=O)NCc2cc(OC)ccc2OC)C1=O (centres undefined) | 3.12e-08 | 0.2% | i | ? | i
CCOC(=O)C1=C(CSc2nccn2C)NC(=O)NC1c1ccc2c(c1)OCO2 (centres undefined) | 6.6e-09 | -2.1% | i | 7.7% | i
CCc1ccc2[nH]c(=O)c(CN(Cc3ccc4c(c3)OCO4)C(=O)c3ccco3)cc2c1 | 3.18e-08 | -1.2% | i | ? | i
CCOC(=O)c1ccc(S(=O)(=O)N2CCN(S(=O)(=O)CC)CC2)cc1 | 2.54e-08 | 1.3% | i | -3.1% | i
O=C(O)c1ccccc1/C=N\N=C1c2ccccc2-c2ccccc21 | 1e-09 | 2.1%[11.5 µM] | i | -2.5%[11.4 µM] | i
CCOC(=O)C1CCN(C(C)=C2C(=O)c3ccccc3C2=O)CC1 | 4.34e-08 | . | i | . | i
CCC(C)N(C(=O)COC(=O)Cc1n[nH]c(=O)c2ccccc12)C1CCS(=O)(=O)C1 (centres undefined) | 3.87e-08 | -1.3% | i | -0.3% | i
CCn1c(C(C)NC(=O)c2cccs2)nc2ccccc21 (centres undefined) | . | -2.4% | . | 0.9% | .
Cc1ccc(N(CC(=O)O)S(=O)(=O)c2cccc3nonc23)cc1 | 1.8e-09 | -0.3% | i | 0.8% | i

New compounds follow.
SMILES | A647 fluor | AID923 | Resorufin autofl | TSHR agonist | A488 autofl
Cc1cc2c(c(=O)o1)C1(C(=O)N(CC(=O)O)c3ccccc31)C(C#N)=C(N)O2 (centres undefined) | 1.16e-08 | 7.1% | i | ? | i
O=C(Nc1cccc(F)c1)c1cccc(S(=O)(=O)N2CCOCC2)c1 | 1e-09 | 15.0% | i | 6.3% | i
CCOC(=O)c1sc(=S)n(-c2ccc(F)c(F)c2)c1N | 1e-09 | -0.7% | i | -16.0% | i
Cc1nc2ccc(NC(=O)Cc3cccs3)cc2s1 | 4.87e-08 | -2.4% | i | ? | i
COc1ccc(-n2c(Cc3cccn3C)nnc2SCC(=O)N2CCCC2)cc1 | . | 4.3% | . | -3.1% | .
Cc1nn(-c2ccc(C(=O)Nc3nnc(C4CC4)s3)cc2)c(C)c1Cl | 2.1e-09 | -2.2% | i | 1.3% | i
CO[C@@H]1COC(=O)C/C=C\[C@@H](C)COC(=O)[C@H](COCc2ccccc2)NC(=O)C/C=C\[C@H]1C | . | -1.1%[11.5 µM] | . | -5.6%[11.4 µM] | .
O=C1NCCCC1C(=O)NCCN1C(=O)CCC1=O (centres undefined) | . | 0.6% | . | 1.1%[11.4 µM] | .
COC(=O)C1(C)C=CC2(CCCCC2)N1C(C)=O (centres undefined) | . | -0.1% | . | 5.3% | .
Cn1cc(S(=O)(=O)N2CCN(Cc3ccccc3)CC2)c(=O)n(C)c1=O | . | -2.1% | . | -5.1% | .
CCOC(=O)CN1C(=O)NC2NC(=O)NC21 (centres undefined) | 4.06e-08 | 1.7% | i | 8.6% | i
O=C(CSc1nnc(-c2ccccc2)o1)N1CCN(c2ccccc2)CC1 | 1e-09 | 1.6% | i | 16.6% | i
O=c1c(-c2ccc(Cl)cc2)coc2c(CN3CCOCC3)c(O)ccc12 | . | 2.5% | . | ? | .
c1nc(N2CCCC2)c2[nH]cnc2n1 | 3.56e-08 | 1.2% | i | 6.1%[11.4 µM] | i
CCNC(=O)C1(c2ccccc2)CCCC1 | . | -2.5% | . | 25.9% | .
Cc1nc2sc(C(c3ccc(C(C)C)cc3)N3CCN(CCO)CC3)c(O)n2n1 (centres undefined) | . | -1.1% | . | ? | .
COc1cccc(C2=CC(c3cccc(OC)c3OC(F)F)n3nnnc3N2)c1 (centres undefined) | 1.8e-08 | 13.9% | i | . | i
COc1ccc(NS(=O)(=O)c2ccc(NC(=O)C3CCCO3)cc2)cc1 (centres undefined) | 3.71e-08 | 1.1% | i | 7.6% | i
COc1ccccc1Oc1ccc(S(=O)(=O)N2CCOCC2)cc1S(=O)(=O)N1CCOCC1 | . | 2.7% | . | 1.5% | .
C=CCN1C(=O)CSC1=Nc1cccc(O)c1 | 1e-09 | 0.2% | i | . | i
N=P(N1CCOCC1)(N1CCOCC1)C12CC3CC(CC(C3)C1)C2 | 1e-09 | -1.9% | i | -1.9% | i
Cc1ccc(S(=O)(=O)N2CC(O)CC2C(=O)Nc2ccc3c(c2)CCC3)cc1 (centres undefined) | 5.1e-08 | 0.0% | i | 3.5% | i
C=CCOC(=O)CCCC(=O)NC1CCCCC1 | . | 1.0% | . | 1.5% | .
Nc1nc(SCCc2ccccc2)c2[nH]cnc2n1 | 2.06e-08 | -4.2%[11.5 µM] | i | 0.0%[11.4 µM] | i
Nn1c(SCC(=O)NC2CCCCC2)nnc1C1CC1 | 1e-09 | 1.0% | i | -2.3% | i

Compound profiles (already shown):
Results for COc1ccc(NS(=O)(=O)c2ccc(NC(=O)C3CCCO3)cc2)cc1 (centres undefined) = A647 fluor = 3.71e-08; AID923 = 1.1%; Resorufin autofl = i; TSHR agonist = 7.6%; A488 autofl = i
Results for Cc1ccc(S(=O)(=O)N2CC(O)CC2C(=O)Nc2ccc3c(c2)CCC3)cc1 (centres undefined) = A647 fluor = 5.1e-08; AID923 = 0.0%; Resorufin autofl = i; TSHR agonist = 3.5%; A488 autofl = i
Results for Nn1c(SCC(=O)NC2CCCCC2)nnc1C1CC1 = A647 fluor = 1e-09; AID923 = 1.0%; Resorufin autofl = i; TSHR agonist = -2.3%; A488 autofl = i

Next part
SMILES | A647 fluor | AID923 | Resorufin autofl | TSHR agonist | A488 autofl
COc1ccc(OC)c(NC(=O)Cn2cnc3c(cnn3-c3ccccc3)c2=O)c1 | . | 0.2% | . | 11.1% | .
COc1ccccc1C(O)P(=O)(OC(C)C)c1ccc(N(C)C)cc1 (centres undefined) | 1e-09 | -0.5% | i | ? | i
CCc1ccccc1NC1c2ccccc2C(=O)N1Cc1ccco1 (centres undefined) | . | -3.5% | . | ? | .
O=C(NCc1ccco1)C1CCN(c2nc3ccccc3n2Cc2ccc(F)cc2)CC1 | . | 3.6% | . | 23.5% | .
CCOC(=O)C1=C(C)NC(=O)NC1c1ccc(C)o1 (centres undefined) | . | -3.7% | . | -6.8% | .
Cc1ccc(S(=O)(=O)N2CC(=O)Nc3ccccc32)cc1C | . | -0.4% | . | -8.7%[11.4 µM] | .
N#Cc1c(N)n(CCOC(=O)c2cccc(Br)c2)c2nc3ccccc3nc12 | 1e-09 | . | i | . | i
CC(C)Oc1ccc(CNCC2(O)CCOC(C)(C)C2)cc1 (centres undefined) | 1.6e-09 | 0.0% | i | -8.7% | i
O=C(Cn1nnc(-c2ccccc2NC(=O)c2ccco2)n1)Nc1ccccc1 | 4e-09 | -2.4% | i | -5.3% | i
O=C(NC1CCCCCC1)C1CCN(c2nc3ccccc3o2)CC1 | 1e-09 | -1.3% | i | 10.5% | i
O=C(Nc1ccccn1)NC(C(F)(F)F)C(F)(F)F | 6e-09 | . | i | . | i
COc1ccc(CCNC(=O)C2CCN(S(=O)(=O)c3cccc4nonc34)CC2)cc1OC | 9e-09 | 0.6% | i | -2.5% | i
CCc1nc(Nc2ccc3nccnc3c2)c2oc3ccccc3c2n1 | 1e-09 | 12.0% | i | -1.1% | i
Cc1ccc(Cn2ccc(NC(=O)C3C4CCC(C4)C3C(=O)O)n2)cc1 (centres undefined) | 1e-09 | 0.1% | i | 1.1% | i
Cc1cnc(CNc2ncncc2-c2ccccc2CN(C)C)cn1 | 1e-09 | -2.8% | i | -0.8% | i
Cc1nc(N)sc1-c1csc(Nc2ccc(Cl)cn2)n1 | 1e-09 | -0.8% | i | -34.7%[inhibitor] | i
Cc1ccc(-n2c(=O)c3sccc3n(CC(=O)N3CCCC3)c2=O)cc1 | 1e-09 | -0.1% | i | -1.2% | i
COc1ccc2ncn(-c3ccccc3)c2c1 | 1.81e-08 | 0.9% | i | 8.8% | i
O=C1CSC(c2ccccc2F)N1CCN1CCCCC1 (centres undefined) | 2.76e-08 | -0.7% | i | 0.2% | i
COc1ncc2nc(-c3ccc(F)cc3)c(=O)n(C3CC3)c2n1 | 3.1e-09 | 0.8% | i | ? | i
COc1cccc(C(C(=O)NCc2ccco2)N(C(=O)Cn2nnc3ccccc32)C2CC2)c1OC (centres undefined) | 1e-09 | 0.9% | i | 11.7% | i
O=C(OCn1nnc2ccccc2c1=O)C1CCCCC1 | 6.7e-09 | -3.9% | i | 1.6% | i
CCc1ccccc1N(CC(=O)NCCSCc1ccco1)S(C)(=O)=O | . | 3.8% | . | 16.8%[11.4 µM] | .
COc1cc(=O)n2c(-c3ccccc3)csc2n1 | 3.44e-08 | . | i | . | i
N#Cc1cccc2cnccc12 | 6.25e-08 | 1.6% | i | 8.8% | i

Continued.
SMILES | A647 fluor | AID923 | Resorufin autofl | TSHR agonist | A488 autofl
CN(C)C(=O)c1ccc(-c2nccc(-n3ccnc3)n2)cc1 | 1.39e-08 | -0.8% | i | 1.1% | i
CCOC(=O)N1CCN(C(=O)c2cnn3c(C(F)F)cc(-c4ccc(C)cc4)nc23)CC1 | 1.7e-09 | -0.9% | i | ? | i
CCOc1ccccc1NC(=O)CCn1c(=O)oc2ccccc21 | 9e-09 | -1.2% | i | 8.7% | i
O=C(CCCn1c(=O)[nH]c2ccsc2c1=O)N1CCN(c2ccccn2)CC1 | 1e-09 | 2.4% | i | 9.5% | i
COc1ccc(OC)c(C(c2nnnn2Cc2ccccc2)N2CCN(C)CC2)c1 (centres undefined) | 1e-09 | -2.6% | i | ? | i
O=C(Oc1ccccc1)N1CCC2(CCCN(c3ccccc3)C2)CC1 | 2.7e-09 | -0.6% | i | ? | i
